Screening data from PubChem BioAssay.
Choline anaer gr: choline-fed anaerobic bacterial growth inhibition. Gram-negative bacterium anaerobic choline minimal medium, absorbance growth; stronger effect = lower value; many inactives read as strong as hits in the columns shown. calls only. hit rate 0.2% among 55,000. AID 1963822;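 active = growth z-score on choline under -2 at 7 or 20 h with little or no fall on glycerol, limits in tiers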;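 note: stock transfer was 300 nL into about 50 µL; the organism is E. coli; final concentration not given here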
Choline anaer gr early: further read-out of Choline anaer gr, marked with its call; z-score; measured here: choline growth z-score, timepoint 1;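 score of optical density at 7 h as mean of two plates; lower means less growth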
* hit, by the source's call; i = inactive; & = joins results of further samples. An excerpt, so the mix of outcomes need not match the whole.

SMILES	Choline anaer gr	Choline anaer gr early
CCOC(=O)O[C@]1(C(=O)OCCl)CC[C@H]2[C@@H]3CCC4=CC(=O)C=C[C@]4(C)[C@H]3[C@@H](O)C[C@@]21C	i	0.47
Cc1cc(-c2nc(-c3ccccc3F)no2)n[nH]1	i	-0.63
CCOC(=O)c1ccccc1NC(=O)Cn1cc(C(=O)c2cccc(OC)c2)c(=O)c2ccc(C)nc21	i	0.68
Cc1nnc2sc(SCC(=O)N3CCOCC3)nn2c1=O	i	0.74
CS(=O)(=O)Nc1ccc(-c2noc(-c3cccc(Br)c3)n2)cc1	i	-0.03
Cc1ccccc1CSc1nc2ccncc2n1Cc1ccccc1	i	-0.35
CCOC(=O)c1ccccc1NC(=O)N1CCn2c(C)ccc2C1CC (stereo unspecified)	i	0.55
CN1CCN(c2nc(Nc3ccc4c(c3)OCO4)c3cnn(-c4ccccc4)c3n2)CC1	i	-1.9
O=C(CN1C(=O)COc2ccccc21)Nc1ccc2nc(NS(=O)(=O)c3ccccc3)sc2c1	i	0.87
Cn1nc(C(=O)N2CCCC(C(=O)Nc3ccccc3)C2)c2c1CCN(C(=O)CC1CCCC1)C2 (stereo unspecified)	i	-0.05
CCCS(=O)(=O)N1CCCN(C2=NS(=O)(=O)C(c3ccc(C)c(C)c3)=C2C)CC1	i	0.63
Cc1ccc(Cn2c(=O)c(N3CCCC(C(=O)NCc4cccc(Cl)c4)C3)nc3ccccc32)cc1 (stereo unspecified)	i	0.98
COc1ccc(NCc2nc3nc(C)c(C)c(=O)n3[nH]2)c(OC)c1	i	0.29
CC(=O)N(c1ccc(C)c(C)c1)C1C=CS(=O)(=O)C1 (stereo unspecified)	i	0.66
CCCOc1ccc(Oc2nc(C)nc3sc(C)c(C)c23)cc1	i	0.99
COC(=O)c1ccccc1NC(=O)NCCCn1c(-c2ccncc2)nc2cccnc21	i	-1.8
CCCn1c(=O)[nH]c2cc(-c3noc(/C=C/c4ccc(C)cc4)n3)ccc21	i	2.6
CCOC(=O)c1sc2ncn3c(-c4cccc(OC)c4)nnc3c2c1C	i	0.27
Cc1cc(C)cc(-n2ncc3c(N4CCCCC4)ncnc32)c1	i	-0.18
CC(C)[C@H](NS(=O)(=O)c1ccc(-c2ccc(Br)cc2)cc1)C(=O)O	i	0.37
COc1ccc(Cn2cnc3c4ccccc4n(CC(=O)Nc4cc(C)cc(C)c4)c3c2=O)cc1	i	0.91
COc1ccc(CNS(=O)(=O)c2cc(-c3nc(C(C)(C)C)cs3)cs2)cc1	i	-0.33
CCn1ccnc(N2CCCCC2)c1=O	i	0.25
COC(=O)c1ccccc1NC(=O)c1c(-c2ccc(OC)cc2)oc2ccc(OC)cc12	i	0.5
COc1ccc(-c2nc(SCC(=O)Oc3ccc(C)cc3C)n3[nH]c(=O)cc3n2)cc1	i	-0.44
CCN(C(=O)c1cccc(N2C(=O)C(C)(C)CS2(=O)=O)c1)C1CCS(=O)(=O)C1 (stereo unspecified)	i	-0.96
CCn1c(CCc2ccccc2NS(=O)(=O)c2cccc3nsnc23)nc2ccccc21	i	-1.4
O=C(NCc1cc(=O)n2nc(-c3ccccc3)sc2n1)c1ccccc1	i	2.1
Cc1nc2nc3c(c(Nc4ccc(F)cc4)n2n1)CCCC3	i	-0.64
Cn1c(=O)n(CCC(=O)N2CCCC2)c(=O)c2cc(S(=O)(=O)NCC3CCCO3)ccc21 (stereo unspecified)	i	-0.1
Cc1ccc2nc(N3CCN(C(=O)C4CC4)CC3)c(-c3noc(-c4ccccc4)n3)cc2c1	i	-0.21
Cc1nn(-c2ccccc2)c2c1-c1sc(C(=O)NCCN(C)Cc3ccccc3)cc1CC2	i	-0.56
CCOc1ccc(CNC(=O)CCS(=O)(=O)c2ccc3c(c2)NC(=O)CO3)cc1OC	i	-1.4
CCCCCN[C@H]1CS(=O)(=O)C[C@@H]1S(=O)(=O)c1cccs1	i	-0.53
Cc1ccc(C)c(CNC(=O)c2cc(C)nc3c2c(=O)n(C)c(=O)n3C)c1	i	0.53
COc1ccc(F)cc1S(=O)(=O)Nc1ccc(-c2ccc(N3CCCC3)nn2)cc1	i	0.43
CC1CCC(N2C(=O)c3cc4sccc4n3CC2(C)C(=O)NC2CCCCC2)CC1 (stereo unspecified)	i	0.07
O=C(COc1ccccc1)NCCc1csc2nc(-c3ccccc3F)nn12	i	0.36
CN1CCN(CCNC(=O)C2CCCN(c3nn4c(=O)c5c(nc4s3)CCCC5)C2)CC1 (stereo unspecified)	i	-0.08
CN(C1CCCCC1)S(=O)(=O)c1ccc2c(c1)c(=O)n(CCC(=O)N1CCCC1)c(=O)n2C	i	-0.1
CCOc1ccc(-c2ccnc3c(C(=O)O)cnn23)cc1	i	0.42
COc1cc(C2CC(=O)C3=C(C2)Nc2onc(C)c2C3c2ccc(O)cc2)ccc1O (stereo unspecified)	i	-0.3
NC(=O)CSc1cc(N2CCCCC2)ncn1	i	0.97
c1coc(CNc2ncnc3nc[nH]c23)c1	i	0.36&0.11
COC(=O)c1cc2ccsc2n1CC(=O)Nc1ccc(OC)c(Cl)c1	i	-0.43
O=S(=O)(Cc1ccc(F)cc1Cl)N1CCc2nc(-c3ccc(F)cc3)ncc2C1	i	0.85
CC(C)OC(=O)C(C)(C)Oc1ccc(C(=O)c2ccc(Cl)cc2)cc1	i	0.77&-0.06&-0.03
COc1ccc(C2=C(O)C(=O)N(c3ccc(Cl)cc3)C2c2ccccc2)cc1 (stereo unspecified)	i	0.87
O=C(CN1CCN(C(=O)c2cccc(Cl)c2)CC1)Nc1nnc(-c2ccccc2)s1	i	0.8
Cn1c(C(=O)N2CCc3ccccc32)cc2c(=O)oc3ccccc3c21	i	-1.1
CN(C)S(=O)(=O)c1cc2c(cc1N1CCOCC1)Oc1ccccc1NC2=O	i	-0.53
CCC(=O)Nc1ccccc1Sc1cc(C)nc2ncnn12	i	1.3
O=C(Nc1ccc2c(c1)OCCO2)N1Cc2cccn2-c2ccccc21	i	-1.4
O=C(NCCCn1c(-c2ccc(F)cc2)nc2cccnc21)Nc1ccc(Br)cc1F	i	-0.03
Cc1nc(-c2cc(S(=O)(=O)NCc3ccco3)c(C)s2)no1	i	-0.63
COc1ccc2c(c1)NC1(CCN(C(=O)Nc3cc(Cl)c(OC)cc3OC)CC1)c1cccn1-2	i	0.15
O=C(NC(=NCc1ccncc1)Nc1ccc2c(c1)OCCO2)c1ccc(CN2CCCCC2)cc1	i	-0.51
CCCn1c(=O)c2[nH]c(C3CCCC3)nc2n(CCC)c1=O	i	-0.13&-0.67
COc1cccc(NC(=O)N2CCN(S(=O)(=O)c3ccc4c(c3)NC(=O)CO4)CC2)c1	i	-0.9
O=S(=O)(c1ccc(-c2cnc(C3CC3)o2)s1)N1CCN(c2cccc(Cl)c2)CC1	i	2
More results follow.
SMILES	Choline anaer gr	Choline anaer gr early
COC(=O)c1c(NC(=O)C2Cc3ccc(C)cc3C(=O)O2)sc(C)c1C (stereo unspecified)	i	0.3
CC(C)c1ccc(NC(=O)C2CCCN(C(=O)C3Sc4ccccc4NC3=O)C2)cc1 (stereo unspecified)	i	-0.34
c1cc(-c2nc(-c3ccc(-c4csc(C5CC5)n4)cc3)no2)cs1	i	2.3
CCN1CCC2(CC1)N=C(c1ccc3c(c1)OCO3)CC(c1cc(Cl)ccc1O)N2 (stereo unspecified)	i	-2.1
COC(=O)c1c(NC(=O)Cc2coc3cc(C)ccc23)sc2c1CCC2	i	-0.4
O=C(O)CC1C(=O)NCCN1Cc1ccccn1 (stereo unspecified)	i	-1.6
COc1ccc(S(=O)(=O)N2CCCC2c2c(C)noc2C)cc1Cl (stereo unspecified)	i	0.16
Cc1ccc(C)c(-n2ncc3c(N4CCOCC4)ncnc32)c1	i	0.73
CN(C)CCCN1c2ccccc2CCc2ccc(Cl)cc21	i	-0.9&0.65&0.26&-1.2
CC(C)NC(=O)N1CCCC(c2cccc(C(=O)NCc3ccc(F)cc3)c2)C1 (stereo unspecified)	i	-0.26
O=C(Cn1cc(-c2nc(-c3ccc(Cl)cc3)no2)ccc1=O)NCC1CCCO1 (stereo unspecified)	i	-0.83
CCC(=O)Nc1nc2cc(NC(=O)c3cc(-c4ccccc4)nc4ccccc34)ccc2s1	i	-1.4
COc1ccc(S(=O)(=O)c2ccc(C(=O)O)cn2)cc1	i	0.86
c1ccc(OCc2nnc3sc(-c4c[nH]c5ccccc45)nn23)cc1	i	1.1
CC1(C)Cc2nc3[nH]c(=O)n(-c4ccccc4)c(=O)c3cc2CO1	i	0.1
CCc1ccc2c(c1)[C@H]1OCC[C@H]1C(c1ccncc1)N2 (stereo partly specified)	i	-0.71
O=C(c1nc(Cn2cnc3ccccc3c2=O)no1)N1CCN(Cc2ccc3c(c2)OCO3)CC1	i	0.05
Cc1c2c(nn1-c1ccc(SCC(=O)NC(C)C)nn1)CCC2	i	0.33
Cn1c(=O)cc(OCCCC(=O)N2CCC(Cc3ccccc3)CC2)c2ccccc21	i	0
COc1ccc(-c2nnc3sc(CN4CCc5ccccc54)cn23)cc1	i	0.45

Ordered by formula weight (low to high): 15 of the compounds above
SMILES	Choline anaer gr	Choline anaer gr early
O=C(O)CC1C(=O)NCCN1Cc1ccccn1 (stereo unspecified)	i	-1.6
CCc1ccc2c(c1)[C@H]1OCC[C@H]1C(c1ccncc1)N2 (stereo partly specified)	i	-0.71
COc1ccc(S(=O)(=O)c2ccc(C(=O)O)cn2)cc1	i	0.86
Cc1ccc(C)c(-n2ncc3c(N4CCOCC4)ncnc32)c1	i	0.73
CN(C)CCCN1c2ccccc2CCc2ccc(Cl)cc21	i	-0.9&0.65&0.26&-1.2
CC1(C)Cc2nc3[nH]c(=O)n(-c4ccccc4)c(=O)c3cc2CO1	i	0.1
Cc1c2c(nn1-c1ccc(SCC(=O)NC(C)C)nn1)CCC2	i	0.33
c1ccc(OCc2nnc3sc(-c4c[nH]c5ccccc45)nn23)cc1	i	1.1
c1cc(-c2nc(-c3ccc(-c4csc(C5CC5)n4)cc3)no2)cs1	i	2.3
COc1ccc(-c2nnc3sc(CN4CCc5ccccc54)cn23)cc1	i	0.45
COC(=O)c1c(NC(=O)Cc2coc3cc(C)ccc23)sc2c1CCC2	i	-0.4
COc1ccc(S(=O)(=O)N2CCCC2c2c(C)noc2C)cc1Cl (stereo unspecified)	i	0.16
CC(C)NC(=O)N1CCCC(c2cccc(C(=O)NCc3ccc(F)cc3)c2)C1 (stereo unspecified)	i	-0.26
CCC(=O)Nc1nc2cc(NC(=O)c3cc(-c4ccccc4)nc4ccccc34)ccc2s1	i	-1.4
O=C(c1nc(Cn2cnc3ccccc3c2=O)no1)N1CCN(Cc2ccc3c(c2)OCO3)CC1	i	0.05

Continuation.
SMILES	Choline anaer gr	Choline anaer gr early
Cc1cccc(NC(=O)Cc2csc(COc3cccc(C)c3)n2)c1	i	1.6
COc1cccc(OC)c1C(=O)Nc1ccc(-c2nc3ccccc3s2)c(Cl)c1	i	-2
N[C@H](C(=O)O)c1ccc(O)c(C(=O)O)c1	i	0.65
O=C1C(=O)N(C2CCN(S(=O)(=O)c3ccccc3)CC2)CCN1Cc1ccc(F)cc1	i	4.6
O=C(NCCc1c[nH]c2ccccc12)C1CCN(c2ccncc2)CC1	i	-0.27
Cc1ccc(NC(=O)C2CCCN(c3ccc4cc(S(=O)(=O)N5CCCC5)ccc4n3)C2)cc1C (stereo unspecified)	i	0.58
O=C1OC(=O)C2C3CCC(O3)C12 (stereo unspecified)	i	0.48
Cc1[nH]c(C)c(S(=O)(=O)N2CCN(CC(C)C)CC2)c1-c1nnc(C2CCC2)o1	i	1.2
Cc1ccc(Cl)cc1N1CCN(C(=O)c2cnc3sccn3c2=O)CC1	i	-1.1
COC(=O)[C@H]1C2C[C@H]3c4[nH]c5ccccc5c4CCN3C[C@H]2CC[C@@H]1O (stereo partly specified)	i	0.38
COc1cc(C2CC(=O)Nc3c2cnn3-c2nc3ccccc3s2)ccc1O (stereo unspecified)	i	-0.54
O=C(NCc1ccccn1)C1CCN(S(=O)(=O)c2ccc(-c3noc(C4CC4)n3)cc2)CC1	i	-0.45
Cn1c(=O)c2c(-c3ccccc3)n3c(c2n(C)c1=O)C(c1ccccc1O)Nc1ccccc1-3 (stereo unspecified)	i	0.43
CC1CCCCN1S(=O)(=O)c1ccc2c(c1)C(C)(C)CN2CC(=O)N1CCCC1 (stereo unspecified)	i	0.24
Cc1oc(-c2ccccc2)nc1CSc1nc2ccccc2n2c(C)nnc12	i	-2
CC1Oc2ccc(S(=O)(=O)N3CCN(C(=O)Nc4cccc(Cl)c4)CC3)cc2NC1=O (stereo unspecified)	i	-0.35
Cc1nn(-c2nc3ccccc3n2C)c2c1C(c1cccc(F)c1F)CC(=O)N2 (stereo unspecified)	i	1.4
CCCOc1ccc(-c2nc(N3CCC(C)CC3)c3ccccc3n2)cc1	i	-1.2
CCCN(CCC)S(=O)(=O)c1cc(-c2nc(-c3ccccc3)no2)sc1C	i	0.39
O=C(c1nc(C2CCCC2)nc2c1OCCO2)N1CCCCC1	i	0.06
CCn1c(C)c(-c2nc(C3CC3)no2)c(S(=O)(=O)N2CCCC2)c1C	i	0.65
CC(C)Cc1csc(-c2csc(S(=O)(=O)Nc3cccc(Cl)c3)c2)n1	i	3
NS(=O)(=O)c1nn2cc(-c3ccccc3)nc2s1	i	-0.26
CC(=O)NC(C)c1nc(-c2ccc(Cl)cc2)no1 (stereo unspecified)	i	-0.07
O=C(COc1ccccc1-c1nnc(-c2ccccc2)o1)NCc1cccc(F)c1	i	-1.5
CC(C)n1c(=O)c(=O)[nH]c2cc(-c3noc(-c4ccc(Cl)cc4)n3)ccc21	i	0.97
COc1ccc(NS(=O)(=O)c2ccc(/C=C\c3onc(C)c3NC(C)=O)cc2)c(OC)c1	i	-0.65
COCCCNc1c(-c2ccc(N(C)C)cc2)nc2sc3ccccc3n12	i	-1.3
Cc1nc(N2CCc3ccccc32)nc2c1C(=O)CC(c1ccccc1O)C2 (stereo unspecified)	i	0.06
CN(C)c1ccc(CNC(=O)c2ccc3cnn(Cc4cccc(Cl)c4)c3c2)cc1	i	-0.08

Profiles as entered above.
`O=C(COc1ccccc1-c1nnc(-c2ccccc2)o1)NCc1cccc(F)c1` as listed: Choline anaer gr: i; Choline anaer gr early: -1.5
`CC(C)Cc1csc(-c2csc(S(=O)(=O)Nc3cccc(Cl)c3)c2)n1` as listed: Choline anaer gr: i; Choline anaer gr early: 3
